# VCAM-1 up: enhancers of VCAM-1 display on endothelial cells, cell-based, plate reader, pooled HUVEC, TNFa stimulus (AID 455) | HUVEC TNFa-induced VCAM-1 immunofluorescence, plate reader; numbers were filed only for top-ranked candidate wells | augmentation, % at 5 µM | hit rate 0.2% among 10,000;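 active = a compound raising TNF-alpha-driven VCAM-1 surface staining, with its hit status upheld on visual or statistical review; inactive = the rest, including hits rejected on review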;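 note: 0% = TNFa with vehicle and 100% = strongest image-checked hit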
# 26S disassembly: blocks ATP-dependent breakdown of the yeast 26S proteasome. anti-FLAG beads, GFP-proteasome disassembly, flow cytometry. inhibition of disassembly, % (test concentration not listed). hit rate 0.2% among 24,000;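 active = above 40%; inconclusive = likely self-fluorescent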;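 note: plate controls were ATP control with full disassembly for no effect and ATP-gamma-S intact proteasomes for full effect; higher percent means more bead fluorescence retained so stronger block of disassembly; stock transfer was 100 nL into about 10 µL; wells with too few beads may also be inconclusive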
# * = called active by the depositor; i = inactive; ? = inconclusive; · = no result given.
26S disassembly,VCAM-1 up,molecule
2.0,·,O=C(CN1C(=O)C2C3C=CC(C3)C2C1=O)NCCN1CCCc2ccccc21 (configuration not stated)
1.5,·,O=C(CCn1c(=O)oc2ccccc21)N1CCOCC1
1.1,i,CCCC(=O)Nc1ccc(NC(=O)c2ccccc2OC)cn1
3.8,i,Cc1nc2c3cnn(-c4ccccc4)c3ncn2n1
-2.5,·,CC1CCN(S(=O)(=O)c2ccc3c(c2)c(=O)c(C(=O)N2CCCCC2)cn3C)CC1
-0.2,i,COC(=O)CCn1nnc(-c2ccc(C)cc2)n1
-1.0,i,COCCOC(=O)C1=C(C)NC(=O)CC1c1cc2c(cc1Br)OCO2 (configuration not stated)
-0.1,i,CN(C(=O)c1ccco1)c1nnc(C23CC4CC(CC(C4)C2)C3)s1
-2.2,i,COC(=O)C1=C(C)Nc2nnnn2C1c1cccs1 (configuration not stated)
-1.0,·,CC(=O)Nc1ccc(S(=O)(=O)NCc2csc(C)n2)cc1
-0.2,i,CCOC(OCC)P(=O)(C(C)C)C(C)C
0.8,·,O=C(c1cccn2c(=O)c3cc(Cl)ccc3nc12)N1CCN(Cc2ccc3c(c2)OCO3)CC1
0.0,i,Cc1ccc(CN2C(=O)CCC2C(=O)NCC2CCCO2)cc1 (configuration not stated)
-0.4,·,COc1ccccc1N1CCN(C(=O)CCn2c(=O)[nH]c3ccsc3c2=O)CC1
1.5,i,COc1cccc(CNc2cccc3cccnc23)c1O
-0.5,·,Cc1cc(C)n(-c2nnc(C)n2NS(C)(=O)=O)n1
2.2,·,CCC1CCCCN1C(=O)CSc1nnc(-c2cccc(Cl)c2)o1 (configuration not stated)
0.0,·,COc1cccc(NC(=O)CSc2nnc(-c3ccc(C)cc3)o2)c1
-1.1,·,CCOC(=O)CC(=O)CSc1ccc2nnc(-c3ccc(F)cc3)n2n1
2.3,i,Cn1nnnc1SCC(=O)Nc1ccccc1C(=O)NCc1ccccc1
-1.4,i,CCCn1c(SCC(=O)NCc2ccco2)nc2c1c(=O)n(C)c(=O)n2C
0.5,i,CCOc1ccc2cc(C#N)c(SCC(=O)N3CCOCC3)nc2c1
0.6,i,CCOC(=O)c1sc(NC(=O)CSc2nnnn2-c2ccccc2)c(C(=O)OCC)c1C
-2.4,i,CN(CCNS(=O)(=O)c1ccc2c(c1)oc(=O)n2C)Cc1ccccc1
0.3,i,Cc1ccc(S(=O)(=O)NCC(=O)OCC(=O)Nc2ncc(Cl)cc2Cl)cc1
0.6,i,CCOC(=O)N1CCC(N2C(=O)c3ccccc3C2Nc2cccnc2)CC1 (configuration not stated)
0.1,i,CCOC(=O)N1CCN(CC(=O)Nc2c(C(=O)OC)[nH]c3cccc(Cl)c23)CC1
-0.1,i,COc1ccc2cnn(-c3ccccc3)c(=O)c2c1OC
-2.5,·,Cc1ccc2oc(=O)c3cnn(CC(=O)NCCc4ccsc4)c3c2c1
1.2,·,COc1ccc(S(=O)(=O)n2nc(OC(=O)c3c(-c4ccccc4Cl)noc3C)cc2N)cc1
-1.3,·,CCCCCn1c(=O)[nH]c2cc(C(=O)NCc3ccc4c(c3)OCO4)ccc2c1=O
-1.4,·,C=C1c2cc(CC)ccc2NC(=O)N1c1ccc(C)cc1
-1.8,·,CCc1ccccc1-n1cnc2cc(C(=O)O)ccc21
-0.8,i,O=C(Nc1ncc2c(n1)CC(c1ccccc1)CC2=O)c1ccco1 (configuration not stated)
0.5,i,CCOC(=O)C1CCN(Cc2ccc(C(=O)OC)cc2)CC1
3.8,·,O=C(CC1N=C2c3ccccc3N=C(SCc3ccc(Cl)cc3)N2C1=O)NCc1ccco1 (configuration not stated)
0.7,i,C=C(C)CSc1nnc(-c2cccc(S(=O)(=O)N(C)C)c2)n1-c1cc(OC)ccc1OC
-0.2,·,CCOc1ccc(N(CC(=O)Nc2cccc(F)c2)S(=O)(=O)c2c(C)noc2C)cc1
-0.8,i,Nc1nc(NCc2ccco2)nn1-c1ccccc1
-11,i,CCOC(=O)C1CCN(c2nc3ccccc3nc2C(C#N)C(=O)OCCOC)CC1 (configuration not stated)
1.5,·,CCOC(=O)CCCCNCc1ccccc1
1.0,·,Cn1cccc1Cc1nnc(SCC(=O)NCc2ccc3c(c2)OCO3)n1CCc1ccccc1
-0.3,·,CCOC(=O)CSc1nnc(-c2nnc(SCC(=O)OCC)n2CC)n1CC
10,·,COCc1cc(C)c(C#N)c(=S)[nH]1
3.2,·,O=C(NCCN1CCN(c2ccccc2)CC1)C1CCN(S(=O)(=O)c2cccs2)CC1
-0.4,i,CCOC(=O)c1c(C)[nH]c(C(=O)COC(=O)C2CC2C)c1C (configuration not stated)
-0.3,·,CCCS(=O)(=O)N1CCC(C(=O)NCCc2ccccc2)CC1
-0.8,·,COc1cc(NC(=O)Cn2ncc3c2-c2ccccc2OC3)cc(OC)c1OC
-1.2,·,O=C(Cn1cnc2c(nnn2-c2ccc(F)cc2)c1=O)N1CCCC1
-0.6,·,CCOC(=O)C1CCN(C(=O)Nc2ccc(NC(=O)C3CCN(C(=O)OCC)CC3)cc2)CC1
-2.1,·,O=C(Nc1ccn(C2CC(OC(=O)c3ccccc3)C(CO)O2)c(=O)n1)c1ccccc1 (configuration not stated)
0.6,·,N#CC1=C(N)N(c2ccccc2C#N)C2=C(C(=O)CCC2)C1c1ccsc1 (configuration not stated)
0.1,i,CC1(C)S[C@@H]2[C@H](NC(=O)C(C(=O)O)c3ccccc3)C(=O)N2[C@H]1C(=O)O (some centres not stated)
-3.6,·,O=C(NCc1ccc2c(c1)OCO2)c1nnc(Cc2ccc(Cl)cc2)o1
1.1,·,O=C(CN1C(=O)C2C3C=CC(C3)C2C1=O)NC1CCCc2ccccc21 (configuration not stated)
-0.6,i,CCCC1(C(=O)OCC)NC(c2ccc(N(C)C)cc2)C2C(=O)N(c3ccc(F)cc3)C(=O)C21 (configuration not stated)
0.9,i,CN(Cc1ccc(-n2cccn2)cc1)C(=O)c1cnn2c1NC(c1ccco1)CC2C(F)(F)F (configuration not stated)
1.1,i,Cc1cccc(OCC(=O)Nc2ccccc2N2CCN(C(=O)C(C)C)CC2)c1C
0.0,i,Cn1c(=O)c2c(-c3ccncc3)c3c(nc2n(C)c1=O)-c1ccccc1C3=O
49*,·,COC(=O)c1ccccc1NC(=O)CN1C(=O)C2CCCN2c2ncc(Cl)cc21 (configuration not stated)

# Whole records, quoted from the list.
# CCOC(=O)CSc1nnc(-c2nnc(SCC(=O)OCC)n2CC)n1CC in the list: 26S disassembly = -0.3; VCAM-1 up = ·
# Cn1cccc1Cc1nnc(SCC(=O)NCc2ccc3c(c2)OCO3)n1CCc1ccccc1 in the list: 26S disassembly = 1.0; VCAM-1 up = ·

# An excerpt from above in order of the 26S disassembly value, lowest first:
26S disassembly,VCAM-1 up,molecule
-0.2,i,COC(=O)CCn1nnc(-c2ccc(C)cc2)n1
0.7,i,C=C(C)CSc1nnc(-c2cccc(S(=O)(=O)N(C)C)c2)n1-c1cc(OC)ccc1OC
1.5,·,O=C(CCn1c(=O)oc2ccccc21)N1CCOCC1

# Following part:
26S disassembly,VCAM-1 up,molecule
0.3,i,CCOC(=O)C1CCCN(C(=O)c2cc(=O)c3ccccc3o2)C1 (configuration not stated)
-0.1,·,Cc1nc(S(=O)(=O)N(C)Cc2ccccc2)c(C#N)c(C)c1Cl
-0.2,·,O=C(NCCN1CCOCC1)c1ccc2c(c1)N(Cc1ccccc1)CCS2
-1.4,·,Cc1ccc(C(=O)CC(C(=O)O)c2cn(CCC#N)c3ccccc23)cc1 (configuration not stated)
-3.3,·,CCOC(=O)N1CCN(C(=O)c2cn(CCOC)c(=O)c3c2c2ccccc2n3C)CC1
5.2,·,O=C(NCC1CCCO1)c1nnc(Cc2ccc(F)cc2)o1 (configuration not stated)
0.1,·,CCOC(=O)C1CCN(C(=O)C2c3ccccc3C(=O)N(C)C2c2ccc(OC)cc2)CC1 (configuration not stated)
1.2,·,Cc1cccc(N(C)S(=O)(=O)c2ccc3[nH]cc(C(=O)N4CCOCC4)c(=O)c3c2)c1
-0.2,i,Cc1cc(C)n2cc(CSc3nnnn3-c3ccc(Cl)cc3)nc2n1
-0.2,i,CN(C(=O)Cn1c(=O)n(CCCCC(=O)NC2CCCC2)c(=O)c2ccccc21)C1CCCCC1
0.8,i,COc1ccc(CN(C(=O)c2cccs2)c2nccs2)cc1OC
-0.2,·,CCn1c(CC(C)C)n[nH]c1=S
-0.8,i,Oc1ccc(Cl)cc1-c1cc(-c2ccccc2)n[nH]1
0.4,i,Cc1nc(N2CCOCC2)[nH]c(=O)c1CCC(C)C
-0.7,·,COc1ccc(-n2nc(C(=O)N3CCCCC3)c3ccccc3c2=O)cc1
-2.4,·,COc1cc(OC)c(Nc2cc(C)nc3nc(C)nn23)cc1Cl
-0.9,i,Cc1csc(NC(=O)c2ccco2)n1
-0.3,i,CC(=Nc1ccc(C)c(C)c1)C1=C(O)CCC1=O
0.3,·,COc1cccc(OCC(O)CN2CCC(Cc3ccccc3)CC2)c1 (configuration not stated)
0.8,·,COC(=O)c1cc2ccccc2c(=O)s1
1.3,·,COC(=O)c1cc(-c2ccc(OC)c(OC)c2)n[nH]1
-0.6,·,Cc1cccc(N2CCN(C(=O)CCn3c(=O)[nH]c4ccccc4c3=O)CC2)c1C
4.2,i,CN(c1ccc(OCc2nnc(-c3ccccc3)o2)cc1)S(=O)(=O)c1ccccc1
0.9,·,CCCCC(=O)c1c(O)c2ccccc2oc1=O
1.2,i,Nc1ccc2[nH]ncc2c1
-0.3,i,CCCSc1nnc(N2C(=O)CC(c3ccsc3)C3=C2CCCC3=O)s1 (configuration not stated)
-0.1,i,CCn1ncc(C2=NOC(C(=O)NCc3ccccc3)C2)c1C (configuration not stated)
1.5,i,Cc1ccc(CNC(=O)COC(=O)c2c(C)noc2C)cc1
0.3,i,CS(=O)(=O)N(CC(=O)NCc1ccccn1)c1ccc2c(c1)OCCO2
0.7,·,O=C(CCCn1c(=S)[nH]c2ccsc2c1=O)NCc1ccco1

# Quoted at random: two records from the list.
26S disassembly,VCAM-1 up,molecule
-0.2,i,COC(=O)CCn1nnc(-c2ccc(C)cc2)n1
0.7,i,C=C(C)CSc1nnc(-c2cccc(S(=O)(=O)N(C)C)c2)n1-c1cc(OC)ccc1OC

# Continuation.
26S disassembly,VCAM-1 up,molecule
0.9,·,COc1cccc(-c2nn(C)c3sc(C(=O)NCc4ccco4)cc23)c1
0.6,i,CCCCNC(=O)c1c(C)cc(=O)oc1C
0.0,i,O=C(Nc1ccc(Br)cc1F)c1sccc1-n1cccc1
-1.7,i,O=C(Nc1ccc(N2CCOCC2)cc1)Nc1ccc2nc(-c3ccco3)c(-c3ccco3)nc2c1
0.5,i,CCOc1ccc(C(=O)N2CCN(C(=O)c3ccco3)CC2)cc1OCC
-1.4,i,Cc1cccc2c(=O)oc(-c3ccc4c(c3)C(=O)N(CC3CCCO3)C4=O)nc12 (configuration not stated)
?,·,Cc1ccc(CCNC(=O)CCNS(=O)(=O)c2ccc3c(c2)c(=O)n(C)c(=O)n3C)cc1
1.9,·,COc1ccc(OC)c(C2C(C(=O)N(C)C)=C(C)Nc3nc4ccccc4n32)c1 (configuration not stated)
0.6,i,O=C(CCCCn1c(=O)c2ccccc2n(Cc2ccc(Cl)cc2)c1=O)NCc1ccco1
-1.8,·,O=C1NCCN1C(=O)c1cccc(Cl)c1
-1.1,·,O=C(CN1CCOc2ccccc21)NC1CC1
0.2,·,CCCCn1c(SCC(=O)N2CCN(c3ccccc3)CC2)nc2ccsc2c1=O
1.6,·,O=C(O)c1cc(S(=O)(=O)N2CCCCC2)ccc1F
-0.8,·,CCOc1ccc(NC(=O)CCN2CCN(c3ccccc3OC)CC2)cc1
2.5,·,O=C(c1cc(-c2ccco2)on1)N1CCc2ccccc2C1
-1.9,·,CCn1cc(C(=O)NCCCN2CC(C)CC(C)C2)c(=O)c2cc(S(=O)(=O)N(C)C)ccc21 (configuration not stated)
-1.8,·,CCOC(=O)N1CCN(CC(O)c2ccc3cc[nH]c3c2)CC1 (configuration not stated)
0.0,·,CCCN1Cc2cccc(C(=O)Nc3ccc4c(c3)OCCO4)c2C1=O
-1.3,i,CCCOc1ccccc1C1CC(=O)Nc2cc3c(cc21)OCCO3 (configuration not stated)
-0.1,·,CC(NC(=O)CC1Nc2ccccc2NC1=O)c1ccccc1 (configuration not stated)
-0.5,i,COCCn1c(CN2CCN(c3ccccc3F)CC2)nc2c1c(=O)n(C)c(=O)n2C
-0.6,i,Cc1nc2sc(C(c3cccs3)N3CCC(C(N)=O)CC3)c(O)n2n1 (configuration not stated)
-2.9,·,CCOC(=O)Cn1c(=O)oc2cc(S(=O)(=O)NCCc3ccc(OCC)c(OCC)c3)ccc21
0.9,i,CC(C(=O)N1c2ccc(F)cc2CCC1C)N1C(=O)c2ccccc2C1=O (configuration not stated)
0.5,·,COc1ccc(N2CCN(C(=O)CN=C3NS(=O)(=O)C(c4ccc(C)cc4)=C3C)CC2)cc1
1.5,·,Cc1ccc(CCN2CC(C(=O)NCc3cccnc3)CC2=O)cc1 (configuration not stated)
2.5,i,COc1ccc(C(=O)Nc2ccc(S(=O)(=O)Nc3onc(C)c3C)cc2)cc1
-1.0,·,O=C(CCNS(=O)(=O)c1cccs1)N1CCCCCC1

# A draw from above in order of heavy-atom count, highest first.
26S disassembly,VCAM-1 up,molecule
0.5,·,COc1ccc(N2CCN(C(=O)CN=C3NS(=O)(=O)C(c4ccc(C)cc4)=C3C)CC2)cc1
-0.5,i,COCCn1c(CN2CCN(c3ccccc3F)CC2)nc2c1c(=O)n(C)c(=O)n2C
1.5,·,Cc1ccc(CCN2CC(C(=O)NCc3cccnc3)CC2=O)cc1 (configuration not stated)

# Screening results from PubChem BioAssay.

# Only part of the results is shown; rates above refer to the full screens.
